Mtb hypoxia rep – PubChem AID 1159583 | M. tuberculosis hypoxia-regulated fluorescent reporter, fluorescence | fluorescence inhibition, % (test concentration not listed) | actives 0.1% (n = 300,000);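 active means 35 to 45% if threefold the growth effect, above 45% if 1.5-fold the growth effect; inactive means the rest, general growth blockers included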;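 further: wells of about 50 µL received 100 nL stock; 0% = vehicle wells and 100% = reference inhibitor wells; whole bacteria with a GFP reporter of the hypoxia response; strong numbers were not always called active; many hits fall short of the cut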
BJeLR lethal – MLPCN primary cell-based screen for lethality selective to Ras in HRASV12 cells | inhibition, % (test concentration not listed) | BJeLR (HRASV12) viability, CellTiter-Glo ATP luminescence, 48 h; reference of the scale not given here | AID 1554, 2009 | actives 0.17% (n = 300,000);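 active means replicate mean above 50%; inconclusive means above 50% but judged a plate artefact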;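 further: 50 nL library stock added to about 25 µL; numbers are from one replicate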
Autofluor counter – counter-screen for toxin protease inhibitors: compound fluorescence; fluorescence intensity (test concentration not listed); AID 624483; compound autofluorescence counterscreen, microsphere flow cytometry; active compounds read high; actives 3.1% (n = 360,000);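 active means at least 3 SD above the mean of all compounds, about 16000 in these data; inconclusive means too few beads counted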;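 further: 100 nL of 1 mM stock went into each well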
PrP 5UTR inh – inhibition of PrP 5' UTR reporter expression. actives 0.35% (n = 340,000). cell-based PrP 5' UTR mRNA reporter, plate reader. inhibition, % (concentration not given with the values);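 active means every replicate at 50% or more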;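 further: 0 = median of the neutral control wells; tested in H4 reporter cells; numbers are from one replicate; inactives centre near -14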
RN4220 kill – growth inhibition of S. aureus RN4220, primary screen, OD600; 16 h; inhibition, % (test concentration not listed); actives 0.33% (n = 330,000); AID 1259311, 2017;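 active means z-score of -3 or lower and OD600 up to 0.18 on both plates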;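 further: plate controls were untreated cells for no effect and reference antibiotic for full effect; stock transfer was 100 nL into about 80 µL; one replicate is shown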
Sa ugtP lethal – growth inhibition of ugtP-null S. aureus, primary screen, RN4220 ugtP deletion, OD600; actives 0.54% (n = 330,000); AID 1259309, 2017; growth inhibition, % (no concentration beside the values); 16 h; some inactives read as strong as hits;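 active means z-score under -3 and OD600 up to 0.15 on both plates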;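 further: plate controls were untreated wells for no effect and antibiotic for full effect; wells of about 80 µL received 100 nL stock; the first replicate is given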
Mtb hypoxia rep growth – recorded beside Mtb hypoxia rep, whose call it bears; growth inhibition, %; measured here: M. tuberculosis growth (absorbance);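 0% = vehicle and 100% = reference antibiotic; read after six days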
Active calls of the source: *; ? = inconclusive; . = not tested or not shown.

structure	Mtb hypoxia rep	Mtb hypoxia rep growth	BJeLR lethal	Autofluor counter	PrP 5UTR inh	RN4220 kill	Sa ugtP lethal
COC(=O)C1=C(C)NC(C)=C(C(=O)OC)C1c1ccc(NC(C)=O)cc1	7	8	9	10473	-12	-0.6	-1
Cc1c(Cl)cccc1NC(=S)N1CCN(Cc2ccc3c(c2)OCO3)CC1	-8	-5	0	2586	-19	-2.7	1
Cc1ccc(C)c(Cn2cnc3c(nnn3-c3ccc(F)cc3)c2=O)c1	-1	0	-7	16844*	-10	2.0	-3
CC1(C)CC(=O)c2sc(NC(=O)c3cccs3)nc2C1	19	5	-2	4010	-43	3.9	-15
C=CCN(c1ccccc1)S(=O)(=O)c1cccc(C(=O)NCC(c2cccs2)N2CCOCC2)c1 (configuration not stated)	1	0	5	.	-1	6.4	1
COc1ccc(S(=O)(=O)N(C)C)cc1NC(=O)CSc1nc(N)cc(N)n1	15	8	-2	4919	-31	3.1	0
CC(OC(=O)c1ccc2c(c1)OCCO2)C(=O)NC1CCCCC1C (configuration not stated)	3	2	-8	4305	-74	2.1	2
CC(=O)N1CCN(c2ccccc2NC(=O)c2cc3ccccc3o2)CC1	9	7	3	4239	-1	4.8	6
COc1cc(OC)cc(-c2nnc(NC(=O)CCS(=O)(=O)c3ccc(F)cc3)o2)c1	3	-3	5	4697	8	1.3	4
CC(=O)Nc1ccccc1NC(=O)COc1cccc2ccccc12	2	-8	-2	4653	-20	2.2	5
COc1cc2cc(C(=O)N3CCOCC3)cc(-c3ccc(C)cc3)c2cc1OC	-14	-13	3	3149	.	1.3	1
COc1ccc(CN(CC2CCC(C(=O)O)CC2)C(=S)Nc2ccccc2OC)cc1 (configuration not stated)	0	5	0	4264	-2	3.0	2
O=C(OCC(=O)N1CCc2ccccc21)c1cccc(S(=O)(=O)N2CCCc3ccccc32)c1	-1	5	5	1991	-9	10	3
Cc1ccc(S(=O)(=O)N2C(c3cccc(Cl)c3)CC=C(C(=O)O)C2c2cccc(Cl)c2)cc1 (configuration not stated)	14	4	.	.	.	32	59
CCOc1cc(C(=S)N2CCOCC2)ccc1OC(=O)c1cc(OC)c(OC)c(OC)c1	-8	3	23	3793	-12	-5.0	-4
C=CC1=CCN(S(=O)C(C)(C)C)[C@H]1CCO (some centres not stated)	-4	4	.	3787	-12	1.5	3
O=C(Nc1ccc(Cl)cc1)/C(=C1\CCCN1)[N+](=O)[O-]	-15	7	-3	3725	-55	-1.4	-3
O=C(O)C12CC3CC(C1)CC(n1ncc(NCc4ccccc4)c(Cl)c1=O)(C3)C2	-3	-8	8	4417	-26	3.0	12
CN(CC(=O)Nc1ccc(OC(F)(F)F)cc1)C(=O)Cc1cccs1	-1	6	.	.	-18	5.4	3
O=C(N/N=C/c1cccc([N+](=O)[O-])c1O)C(O)(c1ccccc1)c1ccccc1	.	.	2	3284	-22	.	.
CCc1nnc(NC(=O)CCC(=O)NCc2ccccc2OC)s1	1	7	-2	.	-1	6.4	8
C[C@@H](N)C(=O)NC[C@H]1CC[C@H](C(=O)N[C@@H](Cc2ccccc2)C(=O)O)CC1	.	.	0	3440	-24	.	.
Cc1ccc(N2C(=O)SC(N(CC(=O)O)c3cccc(C)c3)C2=O)cc1 (configuration not stated)	9	6	11	8179	5	2.2	15
O=C(NNC(=O)C1CCN(C(=O)Nc2ccccc2)CC1)c1ccc([N+](=O)[O-])cc1	4	1	.	2947	-16	8.0	12
Cc1ccccc1C(=O)NNC(=O)CSc1nnc(C)n1-c1ccccc1	-8	9	-18	1980	-9	-3.8	-4
Cc1cc(C(=O)CSc2nc3ccc(Cl)cc3[nH]2)c(C)n1CC1CCCO1 (configuration not stated)	4	1	4	3219	-73	-0.9	-7
N#CC1(NC(=O)COC(=O)Cc2n[nH]c(=O)c3ccccc23)CCCCC1	10	3	-8	5790	-12	0.5	1
CCCC(=O)Nc1cnc(NC(=O)c2cccc(F)c2)cc1C	5	11	4	3666	-62	3.3	-4
Cc1cc(Cn2nc(C(=O)NCc3cccs3)cc2-c2ccccc2)on1	6	2	.	3009	-10	3.6	0
CCC(=O)/C(=C(/O)c1ccccc1)c1nc2ccccc2[nH]1	-13	-6	5	4242	-35	-0.5	10
COCCn1nnnc1C(c1ccccc1OC)N1CCc2ccccc2C1 (configuration not stated)	6	5	-7	5499	-3	11	2
COc1ccc(NC(=O)CC2C(=O)N(c3ccc(F)cc3)C(=S)N2NC(=O)c2ccccc2)cc1 (configuration not stated)	-8	2	10	2154	-17	-3.6	-1
CCOC(=O)c1c(C)[nH]c(C(=O)OCC(=O)Nc2sccc2C(N)=O)c1C	8	9	16	5847	-44	-7.8	-15
COc1ccc2[nH]c(=S)cc(C)c2c1	14	8	5	4878	-9	3.9	3
COc1cccc(C(=O)Nc2ccccc2N2CCCC2)c1	14	19	4	10435	-17	5.0	-7
Fc1ccc(Br)cc1C=Nn1cnnc1	0	0	.	.	.	6.1	4
Cc1cc(N)ccc1S(C)(=O)=O	.	.	-1	4787	-17	-1.6	-2
COC(=O)C(Cc1ccccc1)N1CCS(=O)(=O)CC1 (configuration not stated)	5	7	-11	3248	-14	6.1	2
CCN(CC)c1ccc(/C=C(/C#N)C(=O)NCc2ccccc2)o1	-12	-4	1	3858	-43	3.5	5
CCn1c(/C=C/c2ccccc2)nc2ccccc21	12	20	14	10220	-55	16	30
CCC(C)NC(=O)N1c2ccccc2Sc2ccccc21 (configuration not stated)	1	-4	5	4927	-6	-2.9	-5
O=C1CC2(CCCC2)CC(=O)N1c1ccccc1	-8	3	2	3584	-12	7.6	4
NC(=O)N/N=C/c1sc(N2CCCCC2)nc1-c1cccs1	.	.	6	4855	-21	.	.
COc1cc(C(=O)NC2CCN(C)CC2)ccc1Nc1ncc2c(n1)N(C1CCC(O)CC1)CCC(=O)N2C (configuration not stated)	9	6	.	4090	-11	3.9	-3
COc1ccc(-c2c(C)oc3c(CN4CCOCC4)c(O)ccc3c2=O)cc1	-1	13	0	4054	-14	-2.6	-5
C(=N\n1cnnc1)/c1cn(Cc2ccccc2)c2ccccc12	.	.	1	8409	3	.	.
Cc1cccc(N2CCN(C(=O)c3ccc(CS(=O)Cc4cccc(Cl)c4)o3)CC2)c1C (configuration not stated)	-1	-1	24	5701	5	-1.1	90*
CC1CN(S(=O)(=O)Cc2ccccc2)CC(C)O1 (configuration not stated)	-2	7	4	10968	1	-1.8	0
Cc1ccc(-c2cc(C(=O)NC3CCCC3)no2)cc1	-8	-2	5	3830	-44	8.1	9
Cc1oc(-c2ccccc2F)nc1CS(=O)CC(=O)NCc1ccccn1 (configuration not stated)	-2	-20	4	4488	-9	-1.1	1
COc1cc2c(cc1OC)CN(C(=O)c1cccc(S(=O)(=O)N3CCc4ccccc43)c1)CC2	3	-1	.	4292	-13	6.2	6
COc1ccccc1NC(=O)COC(=O)C1CCCC1	-3	1	.	2727	0	3.5	-1
CCCC(c1nnnn1CC1CCCO1)N1CCN(c2ccccc2)CC1 (configuration not stated)	11	0	-9	4305	-24	4.2	8
O=C(CCC(=O)N(CC(=O)NC1CCCC1)C1CCCC1)Nc1ccccn1	.	.	-5	?	-15	1.6	-2
Cc1ccccc1-n1nc2c(c1NC(=O)c1ccc(Br)o1)CSC2	4	5	4	7924	-11	21	6
COc1ccc(N2CCN(C(=O)CSc3nnc(-c4cccnc4)n3-c3ccccc3)CC2)cc1	.	.	6	3666	-6	1.9	8
Cc1ccc(S(=O)(=O)N2CCC(NC(=O)C3CCCCC3)CC2)cc1	-3	7	-6	5687	0	1.1	11
O=C1C=C(c2ccc3ncccc3c2)CC(c2ccc(F)cc2)C1 (configuration not stated)	5	-1	.	.	.	-2.1	-26
Cc1ccc(NC(=O)CSC2=C(C#N)C(c3ccco3)CC(=O)N2)cc1 (configuration not stated)	8	10	7	2314	-27	4.1	2
Cc1cccc(N2C(=O)C3C4C=CC(C4)C3C2=O)c1 (configuration not stated)	5	9	-8	3151	-12	4.6	4

Five entries already listed, sorted by length of the SMILES, rising:
structure	Mtb hypoxia rep	Mtb hypoxia rep growth	BJeLR lethal	Autofluor counter	PrP 5UTR inh	RN4220 kill	Sa ugtP lethal
COc1ccccc1NC(=O)COC(=O)C1CCCC1	-3	1	.	2727	0	3.5	-1
O=C1C=C(c2ccc3ncccc3c2)CC(c2ccc(F)cc2)C1 (configuration not stated)	5	-1	.	.	.	-2.1	-26
Cc1ccccc1-n1nc2c(c1NC(=O)c1ccc(Br)o1)CSC2	4	5	4	7924	-11	21	6
O=C(CCC(=O)N(CC(=O)NC1CCCC1)C1CCCC1)Nc1ccccn1	.	.	-5	?	-15	1.6	-2
Cc1ccc(NC(=O)CSC2=C(C#N)C(c3ccco3)CC(=O)N2)cc1 (configuration not stated)	8	10	7	2314	-27	4.1	2

(further entries)
structure	Mtb hypoxia rep	Mtb hypoxia rep growth	BJeLR lethal	Autofluor counter	PrP 5UTR inh	RN4220 kill	Sa ugtP lethal
CC(C)CNC(=O)N[C@@H](CC(C)C)C(=O)O	13	2	-1	3572	-86	2.9	2
CCCCCCSC1=C(C#N)C(c2ccccc2)CC(=O)N1 (configuration not stated)	10	2	-2	7109	2	6.7	-1
CCc1ccc(CN(C)C(=O)CCc2nnc(CCc3cccc(OC)c3)o2)nc1	-3	-6	-1	2298	-8	-0.3	7
O=C(/C=C/c1cccc(Cl)c1)c1nc2ccccc2[nH]1	12	11	5	3923	-24	57	28
COc1ccc(CC2CCOC2=O)cc1 (configuration not stated)	9	9	-1	20533*	-18	10	3
COc1cccc(OC)c1C(=O)Nn1c(C2CCC2)nc2ccccc2c1=O	10	9	-1	19169*	-13	9.2	6
COc1cc(C(=O)OCc2ccc([N+](=O)[O-])cc2)cc(OC)c1OC	1	-2	-5	2391	-8	3.9	1
O=C(NCc1cccs1)C1CCC(=O)N1C1CCCCC1 (configuration not stated)	13	10	-15	10591	-15	2.6	3
COc1ccc(C(=O)NN/C(C)=C/C(=O)c2ccccc2)cc1	7	4	3	4014	-16	3.9	3
Cc1cc(N=CN(C)C)on1	1	5	.	.	.	4.2	1
O=C(O)c1ccc(CNC(=O)C23CC4CC(CC(C4)C2)C3)cc1	-2	5	-3	3426	-31	-0.7	4
C=CC[N+](C)(C)c1ccc(CCC(=O)CCc2ccc([N+](C)(C)CC=C)cc2)cc1	6	2	.	5248	-1	4.0	5
